Screens as filed in PubChem BioAssay.
2A StopGo: High Throughput Screening for Foot and Mouth Disease Virus Antivirals; human cells with a luciferase reporter of 2A StopGo recoding; control for the full effect not named in the record; Potency, µM (highest dose often 57.9 µM), for inactives: at the highest dose signal change, negative = less light; hit rate 1.2% among 410,000; AID 1159524, 2015; active = well fitted falling curve with a large enough effect; inconclusive = small, poorly fitted or top-dose-only effect; inactive = no such curve, though single readings can be large or run the other way; tested in HEK293T cells; further: on the % scale 0 is the no-effect control and ±100 the full control effect; nearly all actives have a fitted effect of over 45% in size; luciferase light after 4 h
Cruzain Triton: qHTS Assay for Promiscuous and Specific Inhibitors of Cruzain (with detergent); purified cruzain, Z-FR-AMC fluorescence, 0.01% Triton; Potency, µM, for inactives: max response, negative = inhibition, most hits filed as inhibitors; hit rate 0.43% among 200,000;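 further: plate controls were neutral wells for no effect and buffer without enzyme for full effect; nearly all actives have a fitted effect of over 40% in size; top concentration of the series not given in the record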
Target sequence (P25779 123-467 limits assumed): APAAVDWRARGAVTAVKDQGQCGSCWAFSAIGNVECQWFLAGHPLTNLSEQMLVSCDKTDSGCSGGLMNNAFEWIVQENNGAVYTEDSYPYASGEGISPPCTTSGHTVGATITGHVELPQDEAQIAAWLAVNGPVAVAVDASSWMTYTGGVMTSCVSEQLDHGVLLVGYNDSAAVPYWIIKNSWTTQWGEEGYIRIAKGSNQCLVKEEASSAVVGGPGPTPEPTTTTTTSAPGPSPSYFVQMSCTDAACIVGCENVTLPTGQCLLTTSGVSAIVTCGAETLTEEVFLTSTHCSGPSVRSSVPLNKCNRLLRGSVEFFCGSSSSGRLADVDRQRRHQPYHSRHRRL
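Cysteine protease activity tested under reducing, mildly acidic conditions (100 mM sodium acetate pH 5.5, 5 mM DTT) plus 0.01% Triton X-100. Cruzain 1.5 nM; substrate Z-FR-AMC 2 uM; 15 min compound preincubation at room temperature.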
Cruzain noTriton: qHTS Assay for Promiscuous and Specific Inhibitors of Cruzain (without detergent); purified cruzain, Z-FR-AMC fluorescence, no detergent; Potency, µM, for inactives: max response, negative = inhibition, usual class: inhibitors; hit rate 2.3% among 200,000;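 further: plate controls were enzyme without inhibitor for no effect and buffer without enzyme for full effect; nearly all actives have a fitted effect of over 40% in size; top concentration of the series not given in the record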
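Detergent-free condition (0.00005% Triton X-100) in acetate buffer pH 5.5 with DTT. 1.5 nM enzyme and compound were pre-mixed 15 min, then 2 uM Z-FR-AMC substrate added; reaction progress from fluorescence change between first and third reads (60 s).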
Marburg entry inh: qHTS for inhibitors of binding or entry into cells for Marburg Virus; Marburg virus pseudotyped entry inhibition, cell reporter; control for the full effect not named in the record; about a third of the inactives were read at about 46 µM; Potency, µM (highest dose often 37.8 µM), inactives show top-dose activity change, negative = inhibition, usual class: inhibitors; hit rate 1.8% among 300,000; active = well fitted inhibition curve with a large enough effect; inconclusive = small, poorly fitted or top-dose-only effect, or effect the other way; inactive = flat fitted curve, though single readings scatter; tested in HEK293 cells; about a fifth of its hits are not listed in these tables; further: on the % scale 0 is the no-effect control and ±100 the full control effect; luciferase read-out
NS1 inh: qHTS Assay for Inhibitors of Influenza NS1 Protein Function. S. cerevisiae slowed by influenza A NS1, growth recovery by OD600. Potency, µM (doses to about 46.1 µM), inactives show at the top dose activity, positive = more growth. hit rate 0.4% among 270,000. AID 2326, 2010; active means well fitted rising curve with a large enough effect; inconclusive means small, poorly fitted or top-dose-only effect; inactive means no such curve, though single readings can be large or run the other way; further: nearly all actives have a fitted effect of over 50% in size
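Growth recovery, yeast-based: influenza A NS1 expressed in S. cerevisiae causes slow growth, and suppressors are detected by OD600. The parent strain without NS1 is used as positive control.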
LASV entry inh: qHTS for Inhibitors of binding or entry into cells for Lassa Virus; AID 540256, 2011; Lassa virus pseudotype entry inhibition, cell reporter; control for the full effect not named in the record; hit rate 1.2% among 300,000; Potency, µM (series often up to 37.9 µM), inactives show top-dose activity change, negative = inhibition, usual class: inhibitors; active means well fitted inhibition curve with a large enough effect; inconclusive means small, poorly fitted or top-dose-only effect, or effect the other way; inactive means flat fitted curve, though single readings scatter; tested in HEK293 cells; further: on the % scale 0 is the no-effect control and ±100 the full control effect; nearly all actives have a fitted effect of over 50% in size; luciferase read-out
RE007 growth inh: qHTS Assay for Inhibitors of the HIV-1 protein Vpr | Potency, µM (top dose mostly 92.2 µM), without a hit: at the highest dose activity change, negative = less growth | AID 651644, 2012 | S. pombe RE007 Vpr strain, BacTiter-Glo ATP luminescence, 24 h; control for the full effect not named in the record | hit rate 0.21% among 360,000; active = well fitted falling curve with a large enough effect; inconclusive = small, poorly fitted or top-dose-only effect; inactive = no such curve, though single readings can be large or run the other way;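 further: on the % scale 0 is the no-effect control and ±100 the full control effect; nearly all actives have a fitted effect of over 50% in size; the assay follows cell death caused by Vpr and the record does not say whether a fall means rescue or toxicity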
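Fission yeast strain RE007, carrying one chromosomally integrated HIV-1 vpr copy, was seeded at OD 0.01 in PMG+AL medium with 23 nL pinned compound. After 24 h at 30 °C and 99% humidity, viability was read by BacTiter-Glo luminescence.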
SARS PLpro yeast: qHTS of Yeast-based Assay for SARS-CoV PLP; S. cerevisiae expressing SARS-CoV PLpro, growth rescue; control for the full effect not named in the record; Potency, µM (titrated, usually from 32.9 µM), for inactives: top-dose activity, positive = growth rescue; hit rate 0.19% among 330,000; AID 485353, 2010; active means well fitted rising curve with a large enough effect; inconclusive means small, poorly fitted or top-dose-only effect; inactive means no such curve, though single readings can be large or run the other way; further: 0% is about no effect; nearly all actives have a fitted effect of over 55% in size; growth read by luminescence after 48 h
An asterisk follows results filed as active; ? = inconclusive; · = no result given; & = joins results of further samples; [ ] = remark or other dose. Unless noted, the call rests on the fitted dose curve; in most records, active means well fitted curve in the direction sought with a large enough effect; inconclusive means small, poorly fitted or top-dose-only effect, or another doubt; inactive means no such curve, though single readings can be large; an effect the other way counts as inactive or inconclusive. Potency means the concentration at half of the fitted maximal effect.

SMILES | 2A StopGo | Cruzain Triton | Cruzain noTriton | Marburg entry inh | NS1 inh | LASV entry inh | RE007 growth inh | SARS PLpro yeast
CCOC(=O)C1CCCN(C(=O)c2c(C)nn(-c3ccc(F)cc3)c2-n2cccc2)C1 (stereo not drawn) | -23% | -1.1% | ? | · | · | -2%[46.1 µM] | · | ·
CC(NCCC1(Cc2ccccc2Cl)CCOC(C)(C)C1)c1cccs1 (stereo not drawn) | -1% | · | · | ? | -1% | ? | -14% | -1%
O=C(c1ccccc1)n1nc(-c2ccco2)nc1NCc1cccs1 | 19% | -1.3% | -17% | ? | · | 4%[46.1 µM] | · | ·
CSc1ccccc1OCc1cc(C(=O)NCCc2nc(C)cc(C)n2)no1 | 0% | · | · | · | -3% | · | -15% | -3%
Cc1ccc(Cn2cccc(NC(=O)c3ccco3)c2=O)cc1 | 14% | -6.5% | -8% | 15%[46.1 µM] | -81% | ? | -3% | 14%
CCN(CC)CCNC(=O)c1c(O)c2cccc3c2n(c1=O)CCC3 | 0% | -5.0% | -11% | ? | -13% | ? | -9% | 2%
CCOC(=O)c1cc(-c2ccc(OC)c(S(=O)(=O)N3CCN(c4ccccc4)CC3)c2)on1 | 3% | 0.4% | -1% | · | · | 6%[46.1 µM] | · | ·
CC(C)Cn1c(C(C)C)nc([N+](=O)[O-])c1S(=O)(=O)c1ccc(F)cc1 | 16µM* | 1.1% | -8% | ? | -18% | -25% | 5% | 0%
COc1ccc(-n2c(C)nn(C)c2=O)cc1 | 8% | 11% | -3% | 5% | -2% | 2% | 10% | 1%
O=C(NC1CC(=O)N(c2ccc(F)cc2)C1)C1CC1 (stereo not drawn) | -6% | 1.9% | 15% | · | · | -2%[46.1 µM] | · | ·
CN(Cc1cccnc1)Cc1cn(C)nc1-c1cccc(Cl)c1 | 12% | · | · | · | 0% | · | -14% | -1%
Cc1cc(C)n2nc(SCC(=O)Nc3ccccc3F)nc2n1 | -16% | · | · | 1% | · | 5% | -21% | -1%
COc1ccc(/C=C\c2onc(C)c2S(=O)(=O)N2CCC(C(=O)Nc3ccc(C)cc3C)CC2)cc1 | -28% | -3.6% | -5% | 1%[46.1 µM] | · | 11%[46.1 µM] | · | ·
COc1ccc(/C=N/NC(=S)Nc2c(C)n(C)n(-c3ccccc3)c2=O)cc1OC | -9% | · | · | 25%[14.2 µM] | 0% | -7% | -1% | 0%
CSc1nc(C)cc(SCC(=O)Nc2ccc(Cl)cc2Cl)n1 | -29% | -5.7% | -1% | -26% | -9% | -19% | 0% | -28%
Clc1ccc(OCc2cnc(Cl)s2)cc1 | 34%[activator] | -7.7% | -2% | 1% | -9% | 1% | -11% | 1%
Cc1ccc(S(=O)(=O)CC(=O)N(C)C)cc1 | -21% | 2.9% | -1% | -7% | 8% | 2% | 2% | 19%
Cc1nn(C)cc1CNC(=O)c1ccccc1Br | 24% | 3.3% | -10% | 4% | 8% | 10% | 1% | 7%
COc1ccc(-n2ncc3c2ncn2nc(Cc4ccccc4)nc32)cc1 | 13% | -0.7% | -10% | ? | · | 19%[46.1 µM] | · | ·
CCSc1nnc(NC(=O)CC)s1 | 17% | 3.0% | -12% | · | -35% | · | 1% | 9%
O=C1CN(C(=O)CSc2nc3ccccc3n2CCc2ccccc2)c2ccccc2N1 | 3% | -24% | -22% | ? | -11% | -11% | -6% | 1%
COC(=O)CCN1CCN(S(=O)(=O)c2cccc(Br)c2)CC1 | -12% | · | · | 15% | · | 12% | -10% | 16%
COC(=O)c1cc2occc2n1Cc1nc(-c2ccc(Cl)cc2)oc1C | 8%&-25% | -0.2%&-2.6% | 2%&3% | 2%[46.1 µM] | -8% | 1% | 1% | 2%
O=C(Nc1ccccc1-c1nnn(CC(=O)N2CCOCC2)n1)c1ccc(F)cc1 | -11% | · | · | ? | -9% | 10%[46.1 µM] | 0% | 0%
O=C(Nc1cccc(C(F)(F)F)c1)C(Sc1ncnc2ccccc12)c1ccccc1 (stereo not drawn) | 0% | -6.3% | -15% | ? | -18% | 0% | -2% | -23%
CCCCN(C)CCCNC(=O)CN1C(=O)CSc2ccc(S(=O)(=O)N3CCOCC3)cc21 | -19%&-16% | 0.4%&0.6% | -13%&3% | ? | -1% | ? | -19% | -5%
CCOc1ccc(NC(=O)CS(=O)(=O)Cc2nc(-c3ccc(C)cc3)oc2C)cc1 | -7% | -0.6% | -5% | -4%[46.1 µM] | · | -2%[46.1 µM] | · | ·
O=C(CSc1ccccc1F)NC(=O)c1ccccc1Br | 0% | · | · | 16% | · | ? | 10% | 13%
O=C(Nc1nc2c(s1)CCCC2)c1ccc(Br)s1 | -65% | -12% | -8% | ? | -4% | ? | -14% | 6%
Cc1cccc(NC(=S)N2CCC(NC(=O)c3cccc(F)c3)CC2)c1 | -5% | · | · | 16%[46.1 µM] | -13% | -12% | 10% | -8%
Nc1nc(SCC(=O)Nc2ccccc2-c2ccccc2)n[nH]1 | -11% | 4.6% | 1% | 7% | 7% | -2% | -8% | -3%
Cc1ccc(CC2CC(=O)N(c3ncccn3)C2=O)cc1 (stereo not drawn) | 7% | · | · | -2% | 0% | -2% | 1% | 0%
CCn1c(O)c(N=NC2=NC(=O)CS2)c2ccccc21 | -2% | -5.7% | -18% | 24% | -36% | -3% | 8% | -2%
CN(C)c1ccc(C2CC(=O)C=C(Nc3ccccc3N)C2)cc1 (stereo not drawn) | 24% | · | · | ? | -1% | -2%[46.1 µM] | -22% | -1%
CCc1ccc(OCC(=O)NNC(=S)NC(=O)C2CC2)c(Br)c1 | -5% | · | · | -26%[46.1 µM] | -109% | ? | 5% | -9%
COc1ccc(-n2cnnc2SCc2csc(-c3ccccc3)n2)cc1 | -26% | -0.1% | -12% | 6% | -40% | ? | -3% | -1%
Cc1cc(-c2cc(-c3ccc(Cl)cc3)nc(N)c2C#N)co1 | -15% | -3.6% | ? | -26%&-26% | 7% | ? | 45µM* | -18%
COc1ccccc1N1CCN(/N=C\c2sccc2C)CC1 | 21% | · | · | -1%[46.1 µM] | · | 10% | -16% | 0%
COc1ccc(CCNC(=O)c2ccc(C)s2)cc1OC | -10% | · | · | 4%[46.1 µM] | -3% | 3%[46.1 µM] | 6% | 0%
COc1ccc(-c2cc3c(=O)n(CC(=O)Nc4ccccc4C(F)(F)F)ccn3n2)cc1OC | -9% | 1.7% | ? | · | · | -5%[46.1 µM] | · | ·
O=C(c1ccc(S(=O)(=O)N2CCCC2)cc1)N1CCCCC1 | 10% | · | · | 8% | · | 7% | -5% | -2%
COc1ccc(-c2cc(C(=O)N3CCCc4ccccc43)no2)cc1OC | 22% | -3.9% | ? | ? | -2% | -9% | 10% | -15%
O=C(NNC(=S)Nc1ccc(F)cc1)[C@H]1C[C@@H]1c1ccccc1 | 22% | · | · | 24%[46.1 µM] | -8% | ? | 31% | 1%
O=C(N/N=C/c1c[nH]c2c1ccc1ccccc12)c1ccc([N+](=O)[O-])cc1 | -3% | -4.1% | 6.3µM* | -4%[46.1 µM] | -9% | -9% | 14% | -2%
CCOC(=O)Nc1ccccc1C(=O)Nc1cc(C)cc(C)c1 | -18% | · | · | ? | -3% | 22% | 25% | 0%
COc1ccc(-n2c(-c3ccc(F)cc3)cn3c4c(=O)n(C)c(=O)n(C)c4nc23)cc1 | 54%[activator] | 1.4% | 3% | -1%[46.1 µM] | · | 13%[46.1 µM] | · | ·
Cc1[nH]c2ccc(C(=O)NCCCN3CCOCC3)cc2c1C | 4% | · | · | · | 24% | · | -6% | ?
Cc1cccc(NC(=O)/C(=C/c2cccc([N+](=O)[O-])c2)NC(=O)c2cccs2)c1 | 23% | -3.5% | ? | ? | -10% | 3% | 9% | 7%
CCc1ccc(CNC(=O)CC2C(=O)NCCN2Cc2ccccc2F)nc1 (stereo not drawn) | 19% | · | · | · | 6% | · | -5% | 2%
COc1ccc(NC(=O)COC(=O)C2CC(=O)N(c3ccc(C)cc3)C2)cc1 (stereo not drawn) | 0% | · | · | ? | -7% | -20%[46.1 µM] | -25% | -1%
Following part.
SMILES | 2A StopGo | Cruzain Triton | Cruzain noTriton | Marburg entry inh | NS1 inh | LASV entry inh | RE007 growth inh | SARS PLpro yeast
Cc1nc(SCC(=O)NCC2CCCO2)c2c3c(sc2n1)CCCC3 (stereo not drawn) | -2% | · | · | -19%[46.1 µM] | -9% | -3% | 2% | -17%
O=C(NC1CC(=O)N(c2ccccc2)C1)C1CCCC1 (stereo not drawn) | -4% | 2.4% | -1% | · | · | -1%[46.1 µM] | · | ·
O=C(O)c1cccc(-n2c(/C=C/c3cccc([N+](=O)[O-])c3)nc3ccccc3c2=O)c1 | -2% | · | · | 14%[46.1 µM] | -1% | -17%[46.1 µM] | 3% | 2%
CC(CC(C#N)(c1ccccc1)c1ccccc1)N1CCCCC1 (stereo not drawn) | -18% | · | · | ? | · | ? | -22% | ·
CCNC(=S)N1CCC(C(O)(c2ccccc2)c2ccccc2)CC1 | -8% | · | · | -22%[46.1 µM] | 16% | -18%[46.1 µM] | 10% | 0%
CC12CCC(CC1=O)C2(C)C (stereo not drawn) | -11% | 2.9% | 3% | · | · | · | -19% | -3%
CC(=O)c1cc2c(cc1NC(=O)CCn1cccc1)OCO2 | -13% | 0.0% | 0% | 11% | -12% | 0% | -13% | -8%
COc1ccc(NC(=O)CN(C)C(=O)CCCSc2nc3ccccc3[nH]2)cc1 | 15% | · | · | -10% | · | 0% | -3% | -6%
CCN1CCN(c2cc(C)c3cc(NC(=S)N(CC)CC)ccc3n2)CC1 | 7% | · | · | · | 1% | · | -9% | -4%
Cc1ccc(-n2nc3c(c2NC(=O)c2cccs2)CS(=O)(=O)C3)cc1C | 11% | · | · | 11% | ? | -1% | 4% | -1%
c1ccc2c(c1)NC(c1ccncc1)n1c-2nc2ccccc21 (stereo not drawn) | 9% | 1.9% | 1% | ? | -13% | -18% | -9% | -9%
COc1cc(NS(=O)(=O)c2ccc(NC(=O)c3ccc(Cl)cc3Cl)cc2)nc(OC)n1 | -10% | -10% | 14% | · | · | 7%[46.1 µM] | · | ·
COc1ccc(OC)c(NC(=O)CNC(=O)Cn2ccc3ccccc3c2=O)c1 | ? | 1.3% | -7% | · | 3% | · | -9% | 1%
